# VACV mCherry inh: qHTS for Stage-Specific Inhibitors of Vaccinia Orthopoxvirus: mCherry Reporter Primary qHTS; Vaccinia virus mCherry reporter infection, fluorescence; about a quarter of the inactives have no number; AID 720579, 2013; 310,000 tested, 0.63% active; Potency, µM (highest dose often 36.5 µM), for the others: top-dose activity change, negative = inhibition, most hits filed as inhibitors; active = well fitted inhibition curve with a large enough effect; inconclusive = small, poorly fitted or top-dose-only effect; inactive = no such curve, though single readings can be large or run the other way; tested in A549 cells; further: nearly all actives have a fitted effect of over 35% in size; inactives centre near -10
# Vaccinia Venus: qHTS for Stage-Specific Inhibitors of Vaccinia Orthopoxvirus: Venus Reporter Primary qHTS; Vaccinia virus Venus reporter expression, fluorescence; Potency, µM (series often up to 36.5 µM), without a hit: at the highest dose activity change, negative = inhibition, hits mostly inhibitors; 330,000 tested, 0.46% active; AID 720580, 2013; active means well fitted inhibition curve with a large enough effect; inconclusive means small, poorly fitted or top-dose-only effect; inactive means no such curve, though single readings can be large or run the other way; tested in A549 cells; further: nearly all actives have a fitted effect of over 30% in size; inactives centre near -10
# * = called active by the depositor; i = inactive; ? = inconclusive; nt = no result given; & = joins results of further samples; [ ] = remark or other dose. On the % scale 0 is the no-effect control and ±100 the full control effect; potency means the concentration at half of the fitted maximal effect. Compounds as they come, and some 0.82% of all compounds hit somewhere here.
# Results follow in this order: VACV mCherry inh, Vaccinia Venus
COc1cccc(-n2c(SCc3c(C)noc3C)nnc2-c2cccc(S(=O)(=O)N(C)C)c2)c1
    4%, -7%
COc1cccc(CNc2nc(SC)ncc2CO)c1
    0%, -13%
C/C(N)=C(/C#N)C(=O)CSc1nnc(Nc2cccc(C)c2)s1
    -14%, -18%&-15%
CC1CCN(C(=O)COC(=O)/C=C/c2ccc([N+](=O)[O-])cc2)CC1
    -24%, -8%
CC(=O)Nc1cc2cc(NS(=O)(=O)c3ccc(C)cc3)ccc2oc1=O
    -1%, 5%
Cc1cc(C)cc(CC2CC(=O)N(c3ccc([N+](=O)[O-])cc3)C2=O)c1 (configuration not stated)
    i, -8%
O=C(NCC1CCCCC1)C12CN(Cc3ccccc3)CC1C(c1cccc([N+](=O)[O-])c1)=NO2 (configuration not stated)
    ?, -17%
Oc1cccc(C(O)CNCc2ccc(-c3ccccc3)cc2)c1 (configuration not stated)
    -30%, -28%
CC(=N\Nc1ccccc1)/C(=N/O)C(=O)Nc1ccccc1
    nt, -21%
COc1cccc(NC(=S)N(Cc2ccc(C)cc2)Cc2ccccn2)c1
    -22%, -17%
Cc1cc(C)n2nc(C(=O)N3CCN(Cc4ccc5c(c4)OCO5)CC3)nc2n1
    i, 8%
CC(=O)C(C(C)=O)c1cc(NS(=O)(=O)c2ccccc2)ccc1NS(=O)(=O)c1ccccc1
    -22%, -7%
Cc1cc(O)c(C(c2ccccc2)N2CCN(c3ccccc3)CC2)c(=O)n1Cc1ccco1 (configuration not stated)
    -14%, -11%
Cc1c(-n2c(-c3ccccc3)nc3ccccc3c2=O)c(=O)n(-c2ccccc2)n1C
    i, -6%
CCC(OC(=O)C(C)N1C(=O)C(=O)c2ccccc21)C(=O)Nc1ccccc1OC (configuration not stated)
    -29%, -3%
O=C(N/C(=C/c1cccnc1)C(=O)N1CCOCC1)c1ccco1
    -13%, 0%
Cc1ccc2oc(C(=O)N3CCC(O)(c4cccc(C(F)(F)F)c4)CC3)c(C)c2c1
    i, -14%
CN(C)c1cc[n+](CC(=O)Nc2ccc(OC(F)F)cc2)cc1
    -14%, -25%
O=C(COc1cccc2cccnc12)N/N=C1\SCC(=O)N1Cc1ccccc1
    -23%, -20%
O=C(OCC(=O)N1CCOCC1)c1ccccc1Br
    -12%, -5%
COc1ccc(OC)c(NC(=S)NCCCN2CCOCC2)c1
    -7%, -8%
O=S(=O)(c1ccccc1)c1nc(NCc2cccnc2)sc1Cl
    -20%, -14%
COc1ccccc1C(=O)C1CCCN(C(=O)c2ccc(Cl)cc2)C1 (configuration not stated)
    i, -13%
CCN(CC)C(=O)c1ccc(-c2ccccc2)cc1
    -16%, -20%
CCCCNC(=O)OC1CC2CC1[C@H]1CCCCN1C2=O (some centres not stated)
    -7%, 3%
COc1ccc(-c2cc(C(=O)Nc3c(C(=O)c4ccc(C)cc4)oc4ccccc34)no2)cc1
    -15%, -2%
CNC[C@@H]1Oc2c(NC(=O)Nc3ccccc3)cccc2C(=O)N([C@@H](C)CO)C[C@H]1C
    -21%, -7%
CC(C)N(Cc1ccccc1)C(=S)Nc1ccccc1F
    -12%, 6%
Cc1ccc(-n2ncc3c(SCc4cccc(C)c4)ncnc32)cc1
    i, -7%
COc1ccc(NC(=O)Cc2c(O)c3ccccc3[nH]c2=O)cc1
    nt, -17%

# One compound at a time (already shown):
# CCCCNC(=O)OC1CC2CC1[C@H]1CCCCN1C2=O (some centres not stated) across the screens: VACV mCherry inh: -7%; Vaccinia Venus: 3%
# COc1ccccc1C(=O)C1CCCN(C(=O)c2ccc(Cl)cc2)C1 (configuration not stated) across the screens: VACV mCherry inh: i; Vaccinia Venus: -13%

# Next part
# Results follow in this order: VACV mCherry inh, Vaccinia Venus
CCN(CC)c1ccc2cc(-c3nc(-c4ccccc4F)no3)c(=O)oc2c1
    -9%, -1%
COc1ccc(NS(=O)(=O)c2cccc(-c3n[nH]c(=S)n3Cc3ccccc3)c2)cc1
    -28%, -7%
Cc1ccc(CNC(=O)CCS(=O)(=O)c2ccc(Br)s2)cc1
    -15%, -8%
CCCN(CCC)c1nc(-c2ccccn2)nc2ccccc12
    4.5µM*, ?
Cc1c2cc[n+](CCN3CCCCC3)cc2c(C)c2c1[nH]c1ccc(O)cc12
    ?, ?
N#Cc1cc2c(nc1SCC(N)=O)CCCCC2
    -26%, -20%
COc1ccc(CCNC(=O)CC2C(=O)NCCN2CC(C)(C)C)cc1 (configuration not stated)
    -2%, -9%
CCC(C)c1ccc(OCC(=O)Nc2ccc3c(c2)C(=O)NC3=O)cc1 (configuration not stated)
    -5%, -25%
COc1cc(NC(=O)CSc2nc(-c3ccccc3)no2)cc(OC)c1
    -10%[7.34 µM], -12%[7.34 µM]
N#CC(Cc1cccc(CC(C#N)(c2ccccc2)c2ccccc2)c1)(c1ccccc1)c1ccccc1
    i, -19%
CSc1ccccc1NC(=O)CN(C)C(=O)Cc1c(F)cccc1Cl
    i, -9%
COc1ccc(NC(=O)COC(=O)c2ccc(S(=O)(=O)N(C)c3ccccc3OC)cc2)cc1OC
    -14%, -10%
COc1ccc(Cl)c(CNC[C@H]2O[C@@H](n3cnc(C(N)=O)n3)[C@H](O)[C@@H]2O)c1
    i, -6%
COC(=O)c1ccc(NC(=O)c2c(NCc3ccc(C)o3)sc3c2CCCC3)cc1
    -19%, -11%
CCOc1ccc(OCC)c(NC(=O)c2c(C)nn(-c3ccccc3)c2-n2cccc2)c1
    -14%, -15%
C[C@@H]1O[C@@H](O[C@H]2[C@H](O)[C@@H](O)[C@H](Oc3c(-c4ccc(O)c(O)c4)oc4cc(O)cc(O)c4c3=O)O[C@@H]2CO)[C@H](O)[C@H](O)[C@H]1O
    -4%, -12%
CCCOc1ccc2c(=O)c(-c3cc(C(=O)OC)oc3C)c(C)oc2c1
    -22%, -7%
Cc1c(C(=O)N(C)C)sc2c1c(=O)n(-c1ccc(Cl)c(Cl)c1)c(=O)n2CC(=O)Nc1cccc(C(F)(F)F)c1
    4%, 0%
O=C(NCc1ccccn1)c1cc(Cl)ccc1OCc1ccccc1
    5%, -9%
O=C(c1n[nH]c(=O)c2ccccc12)N1CCOCC1
    nt, -11%
Cc1ccc(-n2nc(C(=O)N3CCN(c4ccccc4F)CC3)c(=O)n(C)c2=O)cc1
    -8%, -3%
COc1ccc(C(=O)/C(C#N)=N/Nc2ccccc2[N+](=O)[O-])cc1
    i, -15%
CCOC(=O)c1c(-c2ccc(C)cc2)csc1NC(=O)c1cc(=O)c2cc(C)cc(C)c2o1
    0%, -4%
O=C1N(c2ccccc2)c2ccccc2C1(O)C(F)(F)F (configuration not stated)
    -15%, -17%
O=C(NCc1ccc2c(c1)CCN2C(=O)c1ccccc1)c1cc2ccccc2[nH]1
    -7%, -14%
CC(C)CC(=O)N/C(N)=N/c1nc2ccccc2s1
    nt, ?
Cc1ccc(S(=O)(=O)N(CC(=O)NCc2ccco2)Cc2ccc(F)cc2)cc1
    -20%, -12%
CC(C)(C)Cc1nnc(NS(=O)(=O)c2ccc([N+](=O)[O-])cc2)s1
    -14%, -15%
CCOC(=O)/C(C#N)=C/c1ccc(-c2ccccc2)o1
    -7%, 4%
CNC(=S)N1CCC(Cc2ccccc2)CC1
    0%, -13%
CCN(Cc1nc2ccccc2c(=O)[nH]1)Cc1nc2ccsc2c(=O)[nH]1
    -7%, -20%
COc1cccc(CNC(=O)c2cccn2-c2nnc(N3CCCC3)s2)c1
    -17%, -7%
S=C1N(c2ccccc2)CN(C2CCCCC2)CN1c1ccccc1
    i, -14%
CCCNC(=O)/C=C/c1ccc(C(C)C)cc1
    -12%, -17%
Nc1nc(NCc2ccco2)nc(NC2CCCCC2)c1[N+](=O)[O-]
    -14%, -9%
CC(C)NCC(O)c1ccc2ccccc2c1 (configuration not stated)
    -1%&-16%, -12%&-5%
CC(C)CNC(=O)C1Nc2ccc(OC(F)(F)F)cc2C2C=CCC12 (configuration not stated)
    -11%, -19%
c1ccc(-c2n[nH]c(-c3ccccn3)n2)nc1
    -2%, -8%
CC(C)CN1CCN(Cc2cccc3c2OCO3)CC1CCO (configuration not stated)
    8%, 4%
CCCOC(=O)c1cc2ccccc2oc1=O
    -16%, -17%
Cc1ccccc1-n1nnc2c(=O)oc3ccccc3c21
    nt, -1%
S=Cc1ccc(/C=C/c2ccnc3ccccc23)cc1
    -25%, -9%
O=C1CN(C(=O)COC(=O)[C@@H]2CC(O)CN2S(=O)(=O)c2ccc(Cl)cc2)c2ccccc2N1 (some centres not stated)
    -2%, -6%
CC(C)(C)CC(C)(C)NC(=S)N1CCN(Cc2ccc3c(c2)OCO3)CC1
    -2%, -2%
COc1cc2c(cc1NC(=O)C(C)Sc1nc3ccccc3n1C)oc1ccccc12 (configuration not stated)
    -10%, -7%
COc1ccc(C(=O)Nc2ccc(Br)cc2F)cc1S(=O)(=O)N1CCCC1
    -3%, -5%
Cc1ccc(N(CC(=O)NCc2ccc(F)cc2)C(=O)c2csnn2)cc1C
    -19%, -6%
COc1cc(/C=C2/CCc3ccccc3C2=O)cc(OC)c1OC
    ?, ?
O=S1(=O)N[C@@H](CC2=CCCCC2)C2CCCCC2O1 (some centres not stated)
    -2%, -12%
O=C(c1cc(-c2ccco2)nn1-c1cccc(Cl)c1)N1CCCCC1
    nt, 1%

# Structural class, those above with a tert-butyl group.
# Results follow in this order: VACV mCherry inh, Vaccinia Venus
COc1ccc(CCNC(=O)CC2C(=O)NCCN2CC(C)(C)C)cc1 (configuration not stated)
    -2%, -9%
CC(C)(C)Cc1nnc(NS(=O)(=O)c2ccc([N+](=O)[O-])cc2)s1
    -14%, -15%
CC(C)(C)CC(C)(C)NC(=S)N1CCN(Cc2ccc3c(c2)OCO3)CC1
    -2%, -2%

# (list continues)
# Results follow in this order: VACV mCherry inh, Vaccinia Venus
O=C(C1CC(=O)N(C2CCCC2)C1)N1CCN(c2ccccc2)CC1 (configuration not stated)
    -9%, -5%
CCCCCNCc1ccc(Cl)cc1
    -2%, -7%
CC1CC(C)CN(S(=O)(=O)N2CCCC(C(=O)NCCCN3CCCCC3C)C2)C1 (configuration not stated)
    -12%[7.34 µM], -11%[7.34 µM]
CS(=O)(=O)N(CC(=O)Nc1ccc(Br)cc1)c1ccccc1Br
    -5%, 1%
CCCN1C(=O)c2ccccc2NC1c1ccc(OC)c(COc2cccc(C)c2C)c1 (configuration not stated)
    31%[activator], -3%
CCOc1ccccc1NC(=O)CCc1nnc2ccc(N3CCC(C)CC3)nn12
    ?, -23%
COc1ccc(C(CNS(=O)(=O)c2ccccc2)N2CCN(C)CC2)cc1 (configuration not stated)
    -1%, -20%
Cc1ccc(S(=O)(=O)CCC(=O)Nc2ccccc2C)cc1
    -23%, -11%
CCOC(=O)c1c(-c2ccc(F)cc2)cn2ccccc12
    nt, 14%
CCOc1ccc(-n2c(-c3ccco3)n[nH]c2=S)cc1
    nt, -28%
FCCCOc1ccc(/C=N/OCc2ccc(Cl)cc2)cc1
    nt, -1%
O=C(NCc1ccc2c(c1)OCO2)C1CCCN(S(=O)(=O)c2cccc3cccnc23)C1 (configuration not stated)
    -9%, -9%
CCc1ccc(NC(=O)CCCc2nnc3n(CCCOC)c(=O)c4sccc4n23)cc1
    -12%, -5%
O=C(CN1C(=O)NC(Cc2c[nH]c3ccccc23)C1=O)Nc1cccc(S(=O)(=O)N2CCCCCC2)c1 (configuration not stated)
    ?, ?
COCCNCC(=O)NCC12CC3CC(CC(C3)C1)C2
    nt, -18%
C=CCSc1nc(Oc2ccccc2)c2sccc2n1
    nt, ?
COCCNC(=O)C1(C)CCCN(C(=O)c2ccc(OC)cc2OC)C1 (configuration not stated)
    i, -2%
O=C(Nc1ncc(S(=O)(=O)c2ccc([N+](=O)[O-])cc2)s1)c1ccc2ccccc2c1
    i, -10%
C=CCNC(=O)c1ccccc1NS(=O)(=O)c1ccccc1
    nt, -7%
OC(COc1ccc(OCC(O)CN2CCCCCC2)cc1)CN1CCCCCC1 (configuration not stated)
    nt, -26%
Cc1cn2c(=O)cc(COc3ccc(C(C)(C)C)cc3)nc2s1
    -12%, -12%
Cc1cccc(Cn2c(-c3ccccc3)nc3ccccc32)c1
    3%, -6%
O=C(N/C=N/OCc1ccc(Cl)cc1Cl)NOCc1ncc(C(F)(F)F)cc1Cl
    -5%[1.46 µM], ?
COc1ccc(CC(=O)Nc2cccnc2)cc1
    i, -15%
CCOC(=O)/C=c1\s/c(=C\c2ccccc2C)c(=O)n1CC(=O)NCc1ccc2c(c1)OCO2
    -14%, -28%
Cc1nn(C)c(C)c1S(=O)(=O)N(CC(=O)N1CCc2ccccc2C1)c1ccc(C(C)C)cc1
    -9%, ?
CC(C)NC(=O)Cc1csc2nc(-c3ccccc3)cn12
    6%, 17%
O=C(Nc1nnc(C2=COCCO2)o1)c1ccc(Cc2ccccc2)cc1
    i, -7%
COc1ccc(OC)c(S(=O)(=O)Nc2cccc(C(C)=O)c2)c1
    -11%, -12%
Cc1cc([N+](=O)[O-])nn1CCCC(=O)Nc1sc2c(c1C(N)=O)CCCC2
    -10%, -6%
